Screens (PubChem BioAssay)
hNpr1 antagonist: Natriuretic polypeptide receptor (hNpr1) antagonism - Primary qHTS | Atrial natriuretic peptide receptor 1 (Homo sapiens), P16066 | actives 1.6% (n = 76,000) | HEK293 hNpr1 GloSensor cGMP, ANP-stimulated luminescence | Potency, µM (top dose mostly 46.3 µM), for inactives: top-dose activity change, negative = inhibition, hits mostly inhibitors; active = well fitted inhibition curve with a large enough effect; inconclusive = small, poorly fitted or top-dose-only effect; inactive = no such curve, though single readings can be large or run the other way;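 also: nearly all actives have a fitted effect of over 60% in size; nearly all hits also lower the signal before the agonist is added; a reference antagonist and vehicle were the controls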
Target sequence (P16066 whole entry, looked up): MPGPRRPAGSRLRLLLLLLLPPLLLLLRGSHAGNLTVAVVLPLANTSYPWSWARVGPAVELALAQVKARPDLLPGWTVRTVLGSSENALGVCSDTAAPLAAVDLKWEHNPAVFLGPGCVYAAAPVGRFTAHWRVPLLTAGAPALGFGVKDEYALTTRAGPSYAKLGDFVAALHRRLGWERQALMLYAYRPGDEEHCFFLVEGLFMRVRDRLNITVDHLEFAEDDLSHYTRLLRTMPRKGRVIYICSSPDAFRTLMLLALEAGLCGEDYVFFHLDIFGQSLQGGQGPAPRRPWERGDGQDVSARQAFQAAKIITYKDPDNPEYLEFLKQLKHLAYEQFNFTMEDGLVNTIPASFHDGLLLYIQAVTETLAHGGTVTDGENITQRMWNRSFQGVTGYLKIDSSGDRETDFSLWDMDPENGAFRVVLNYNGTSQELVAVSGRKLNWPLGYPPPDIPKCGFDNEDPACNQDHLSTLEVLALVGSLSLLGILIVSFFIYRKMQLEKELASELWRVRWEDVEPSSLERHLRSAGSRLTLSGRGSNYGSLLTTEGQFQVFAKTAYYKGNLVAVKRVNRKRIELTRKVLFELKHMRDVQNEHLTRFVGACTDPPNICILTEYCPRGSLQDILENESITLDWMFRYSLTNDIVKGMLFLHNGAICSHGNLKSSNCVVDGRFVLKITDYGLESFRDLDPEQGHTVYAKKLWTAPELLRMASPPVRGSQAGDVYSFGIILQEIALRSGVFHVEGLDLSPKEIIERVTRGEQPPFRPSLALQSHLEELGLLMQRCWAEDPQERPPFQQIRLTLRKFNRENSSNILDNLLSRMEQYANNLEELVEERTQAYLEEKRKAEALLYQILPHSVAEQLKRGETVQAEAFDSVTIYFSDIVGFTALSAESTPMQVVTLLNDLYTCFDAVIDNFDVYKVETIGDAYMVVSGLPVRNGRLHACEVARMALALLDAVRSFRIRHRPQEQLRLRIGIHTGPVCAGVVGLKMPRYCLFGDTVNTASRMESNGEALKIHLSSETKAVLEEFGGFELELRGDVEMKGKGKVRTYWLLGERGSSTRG
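HEK293 cells stably expressing human Npr1 and cGMP GloSensor pGS-40F, loaded 2 h with 2% GloSensor reagent, given compound 30 min at room temperature. Luminescence read before and 20 min after 0.1 nM hNppA.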
Numbers without * were called inactive; ? = inconclusive; & = joins results of further samples; [ ] = dose if it differs, or a comment. % is scaled to controls: 0 for no effect and ±100 for the full control effect; potency is read from the fitted curve at half-maximal effect. An excerpt; rates above refer to the full screens.

Start of the listing, in advance:
SMILES	hNpr1 antagonist
O=C(COc1ccccc1)NC[C@H]1O[C@H](Cc2cc(CN3CCNCC3)on2)CC[C@@H]1O	1.3%
O[C@H]1[C@H](n2cc(-c3cccc(F)c3)nn2)c2ccccc2C12CCNCC2	-3.1%
Cn1cc(CN[C@H]2[C@H](O)[C@H](O)C[C@@H]2c2ccc(N3CCOCC3)nc2)cn1	4.0%[70.6 µM]
Fc1ccc(-c2nc(CC3CCNC3)no2)cc1 (configuration not stated)	1.4%
COc1ccc(C2Cn3nnc(C(=O)N4CCC(C(=O)NC(C)c5ccccc5)CC4)c3CO2)cc1 (configuration not stated)	-1.3%
Cc1cccc(NC(=O)N2CCC(CCNC(=O)c3cc(F)ccc3F)CC2)c1	-0.4%
CCN1C(=O)C2CC3(CCN(C(=O)c4ccn[nH]4)CC3)CN2C1=O (configuration not stated)	?
CSc1cccc(NC(=O)N[C@H]2C[C@@H](C(=O)N[C@@H](CCCNC(=O)CC(C)(C)C)C(N)=O)N(C(=O)CC(C)(C)C)C2)c1	0.4%
Cc1cc(C(=O)N2CCCN(Cc3ccncc3)C(c3ccccc3)CC(=O)NCC2)nn1C (configuration not stated)	5.3%
CCNC(=O)NC[C@H]1Cn2c(-c3cccc(Cl)c3)cnc2CO1	-0.3%[70.6 µM]
O=C1COc2ccc(-c3ccc(Cl)cc3)nc2CN1Cc1ccccc1	?
Cc1cc(C)n(CCC(=O)N2C[C@@H](CO)[C@H](c3nc(C)no3)C2)n1	2.3%
Cc1ccccc1CC(=O)N1CCC2(CC1)N(c1ccccc1)C(=O)CS2(=O)=O	7.1%

This part in full, repeating the preview:
SMILES	hNpr1 antagonist
O=C(COc1ccccc1)NC[C@H]1O[C@H](Cc2cc(CN3CCNCC3)on2)CC[C@@H]1O	1.3%
O[C@H]1[C@H](n2cc(-c3cccc(F)c3)nn2)c2ccccc2C12CCNCC2	-3.1%
Cn1cc(CN[C@H]2[C@H](O)[C@H](O)C[C@@H]2c2ccc(N3CCOCC3)nc2)cn1	4.0%[70.6 µM]
Fc1ccc(-c2nc(CC3CCNC3)no2)cc1 (configuration not stated)	1.4%
COc1ccc(C2Cn3nnc(C(=O)N4CCC(C(=O)NC(C)c5ccccc5)CC4)c3CO2)cc1 (configuration not stated)	-1.3%
Cc1cccc(NC(=O)N2CCC(CCNC(=O)c3cc(F)ccc3F)CC2)c1	-0.4%
CCN1C(=O)C2CC3(CCN(C(=O)c4ccn[nH]4)CC3)CN2C1=O (configuration not stated)	?
CSc1cccc(NC(=O)N[C@H]2C[C@@H](C(=O)N[C@@H](CCCNC(=O)CC(C)(C)C)C(N)=O)N(C(=O)CC(C)(C)C)C2)c1	0.4%
Cc1cc(C(=O)N2CCCN(Cc3ccncc3)C(c3ccccc3)CC(=O)NCC2)nn1C (configuration not stated)	5.3%
CCNC(=O)NC[C@H]1Cn2c(-c3cccc(Cl)c3)cnc2CO1	-0.3%[70.6 µM]
O=C1COc2ccc(-c3ccc(Cl)cc3)nc2CN1Cc1ccccc1	?
Cc1cc(C)n(CCC(=O)N2C[C@@H](CO)[C@H](c3nc(C)no3)C2)n1	2.3%
Cc1ccccc1CC(=O)N1CCC2(CC1)N(c1ccccc1)C(=O)CS2(=O)=O	7.1%
CC(=O)N1CCN(Cc2nc3c(n2Cc2ccccc2)C(=O)N(Cc2cccc(Cl)c2)CCN3)CC1	-8.5%
Cc1nc(C)c(C(=O)N2CC[C@H](N3CCN(C)CC3)[C@H](CCC(=O)O)C2)o1	1.6%
COc1cccc(CC(=O)NCc2cc(N3CCOCC3)ncn2)c1	5.0%
O=C(Nc1cccnc1)c1ccnc(-c2nnc3ccc(N4CCOCC4)nn23)c1	9.1%[70.6 µM]
COC(=O)c1ccc2nc(CO[C@H]3CN(C4CCOCC4)C[C@H]3F)[nH]c2c1	-7.0%[70.6 µM]
O=C(Nc1ccccc1)N1CCC2(CC1)SCC(=O)N2c1ccc(Cl)cc1	-3.8%
CCOc1ccc(CC(=O)NC2CCCN(c3cc(-c4ccc(F)cc4)[nH]n3)C2)cc1OCC (configuration not stated)	-0.7%
Cc1cccc(C(=O)N2CCC3(CC2)OCC(C(=O)NCC(C)C)N3C(=O)c2cccc(C)c2)c1 (configuration not stated)	-11.9%
O=C1NC(C(=O)NCc2ccc(F)cc2)Cn2cccc21 (configuration not stated)	-0.3%
COc1cc2c(cc1OC)C(CNC(=O)c1ccco1)N(C(=O)Nc1cccc(F)c1)CC2 (configuration not stated)	1.2%
CCn1ncc(C(=O)N[C@@H]2CN(c3ncccn3)C[C@H]2CN(C)C)c1C	1.2%
COc1ccc(C(=O)N[C@@H]2CN(Cc3cccnc3)C[C@H]2CN(C)C)c(OC)c1	2.6%
CCN1CCN(CCN2CC3(CCN(C4CCOCC4)CC3)OC2=O)CC1	-2.0%
CCC1Oc2ccc(NC(=O)Cc3ccccc3)cc2CN(Cc2cccc(OC)c2)C1=O (configuration not stated)	-14.9%
CC[C@H]1CN(S(=O)(=O)c2c(C)noc2C)CC[C@H]1CC(=O)Nc1ccccc1	-2.3%[70.6 µM]
CC(c1ccon1)N(C)C(=O)c1cccc(CC2CCNCC2)c1 (configuration not stated)	9.0%
Cc1cc(OCCN2CCOCC2)c(C)c2c1CC[C@@H]([C@H](C)C(=O)N1CCOCC1)C2	-11.4%[70.6 µM]
O=C(Cc1noc2ccccc12)N[C@@H]1COCC[C@@H]1OCc1ccccn1	4.0%
COC(=O)CC1CCN(C(=O)C2CC(=O)N(c3n[nH]c4cccc(F)c34)C2)CC1 (configuration not stated)	7.0%
COc1ccccc1CCN1CCC(CN(C)Cc2n[nH]c(C)n2)CC1	0.2%
COc1ccc(CN2CC(c3nc(Cc4cccnc4)no3)C2)c(OC)c1	?
COc1ccc(N2CCN(C(=O)Cn3nc(C)c4sc(C(C)C)nc4c3=O)CC2)cc1	0.0%
O=C1C2CN(Cc3cc(F)ccc3F)CCC2OCCN1CCc1ccccc1 (configuration not stated)	-1.1%[70.6 µM]
Cc1nn(-c2ccc(C(F)(F)F)cc2)c(C)c1[C@@H]1C=C[C@@H](NC(=O)COc2ccccc2)C1	-24.2%
COc1cc(F)cc(-c2ncc3c(n2)OCCN(c2cccc(C(F)(F)F)c2)C3=O)c1	-9.4%[70.6 µM]
COc1ccc(-c2ccc3nnc(CNC(=O)c4sccc4C)n3n2)cc1	0.0%
O=C(c1ccc(Cl)nc1)N1CCC(N2CCCNC2=O)CC1	0.0%&0.3%[70.6 µM]
O=C(Nc1nn(CC(F)(F)F)c2cccc(Oc3cccnc3)c12)c1cocn1	-7.0%
O=C1NCCCC[C@@H]1Nc1ccc(-c2nc(COc3ccccc3)no2)cn1	-15.4%
CN(Cc1ccccc1CN1CCCC1)c1nccc(-c2ccccn2)n1	1.5%
COCc1cc(=O)n(CC(=O)Nc2ccc(C)cc2C)c(N2CCOCC2)n1	-10.6%
Fc1ccc2nc(CO[C@H]3CN(Cc4cccnc4)C[C@H]3F)[nH]c2c1	-4.1%[70.6 µM]
CCC1(C(=O)NCc2ccc(OC(C)C)cc2)CCCCC(=O)N1 (configuration not stated)	2.4%
O=C(N[C@H]1CO[C@H]2[C@@H]1OC[C@@H]2Nc1nccc(-c2ccc(-c3ccccc3)cc2)n1)c1ccc2c(c1)OCO2	-1.5%
COCCC(=O)N1C[C@@H](COc2cccnc2)[C@H](c2ccncc2)C1	-2.7%
COc1cccc(NC(=O)N2CC(C(=O)N(C)C)C3(CCOCC3)C2)c1 (configuration not stated)	-4.0%
Cc1cc2nc3n(c(=O)c2n1CC(=O)Nc1cccc(C(F)(F)F)c1)CCCC3	3.5%
Later entries.
SMILES	hNpr1 antagonist
O=C(c1ccc2c(c1)[nH]c(=O)n2C1CCC(O)CC1)N1CC[C@H]2CNC[C@H]21 (some centres not stated)	-0.2%
CC(C)Oc1ccc2c(NC(=O)CCn3cncn3)nn(Cc3ccccc3)c2c1	4.9%
Cn1ccnc1CNCC1(CO)C[C@@H](O)[C@@H](O)C1 (some centres not stated)	2.6%[70.6 µM]
O=C(CCc1c[nH]c2ccccc12)N1CCC2(CC1)CC(CO)N(C(=O)c1ccccc1)C2 (configuration not stated)	1.3%
Cc1ccccc1-c1cnc2[nH]cc(CC(=O)Nc3cccnc3)c2c1	15.8µM*
O=C(c1cn[nH]c1)N1CC2(CN(Cc3cccc(Cl)c3)CC2COc2ccccc2)C1 (configuration not stated)	?
COc1cc(C(=O)NC2CCCN(c3ncccn3)C2)cc(OC)c1OC (configuration not stated)	-3.1%
Cc1oc2c(c1C(=O)N1CCCC1)CN(Cc1cccc(F)c1)CC2	-2.8%
CCNC(=O)N1CCCC1c1noc(CCC(=O)NC(CC)CC)n1 (configuration not stated)	2.2%
CCOC(=O)c1ccc(NC(=O)N2Cc3[nH]cnc3C[C@H]2c2nc(C(C)C)no2)cc1	1.0%[70.6 µM]
Cc1noc2c(NCCN3CCOCC3)cc(-c3cccc(C(F)(F)F)c3)nc12	0.3%[70.6 µM]
O=C(COc1ccc(-c2nnc3n2CCCC3)cc1)N1CCN(c2ccc(F)cc2)CC1	2.3%
CN(Cc1cccnc1)C(=O)[C@H]1C[C@@H](C(=O)O)N(C)[C@H]1c1cccc(F)c1F	12.8%
Cc1ccc(-c2ccc3nnc(CNC(=O)c4ccco4)n3n2)cc1C	18.1%
CC1=CCN(C(=O)C2C3C(=O)N(Cc4cccnc4)C[C@@]34C=C[C@@H]2O4)CC1 (some centres not stated)	-2.7%
COc1ccc(OCC2(C)COc3ccc(C(=O)NC4CCC(O)CC4)cc3N2)cc1 (configuration not stated)	1.7%[70.6 µM]
Cc1ccc(NC(=O)Cn2c(C)cc3nc4n(c(=O)c32)CCCCC4)cc1Cl	-13.9%
Cc1ccc(C(C(=O)N2CCC(Cc3noc(C)n3)CC2)N(C)C)cc1 (configuration not stated)	1.1%
CN(Cc1ccccc1)Cc1cc(C[C@@H]2C[C@H](NC(=O)C3CCC3)C2(C)C)no1	?
COc1ccc(-c2noc([C@@H](C)NC(=O)C3CCOCC3)c2C(=O)O)cc1	-1.4%[70.6 µM]
COc1ccc(NC(=O)Cn2c(=O)n(-c3ccc(F)cc3)c(=O)c3c2cc(C)n3C)c(OC)c1	-8.1%
CCNC(=O)N(C1CC1)C1CCOC2(CCN(C(=O)c3cnc(C)cn3)CC2)C1 (configuration not stated)	4.1%
Cn1nc(C2CCN(C(=O)CCC3CCCC3)CC2)c2c1CCOC2	-1.1%
CC(=O)Nc1cccc2nc(CN3CCN(C(C)C)C(CCO)C3)ccc12 (configuration not stated)	-11.6%
CCn1nccc1C(=O)N1CCn2nnc(CCC(=O)NCc3ccccc3)c2C1	2.7%
O=C(O)c1ccc2c(c1)n(Cc1ccccc1)c(=O)c1ccnn12	-0.8%
CCN(CC)C(=O)C1N(C(C)C)C(=O)C12CCCC2 (configuration not stated)	8.1%
Cc1ccc(NC(=O)N2CCC(CCN)CC2)cc1	1.1%
Cc1ccc2nc(COCC(=O)N3CCn4nc(CO)cc4C3)[nH]c2c1	4.5%
COc1ccccc1-c1nccn1-c1ccc(CC(=O)NC2CC2)cc1	2.8%
COCCc1noc(-c2nc(-c3ccc(OC)c(OC)c3)no2)n1	6.8%
COCC(=O)N[C@H]1C[C@@H](Cc2cc(CN(C)Cc3ccccc3)on2)C1(C)C	-18.5%[70.6 µM]
CSc1cccc(NC(=O)N[C@H]2CCN(C(=O)c3cnccn3)[C@@H]2C(=O)N[C@@H](Cc2cccs2)C(N)=O)c1	2.4%
CCC(CC)N(CC)C(=O)CC1C(=O)NCCN1Cc1ccc(C)o1 (configuration not stated)	-3.7%
CCN1C(=O)C2(CCN(C(=O)NCCC(C)C)CC2)c2ccccc21	1.7%
COc1ccc(-c2noc(-c3cccn3CC(=O)Nc3ccccc3)n2)cc1F	4.5%
COc1ccccc1C(=O)N1CCC2(CC1)CC(N(C1CC1)S(C)(=O)=O)CCO2 (configuration not stated)	-9.8%
Cc1ccc(C(=O)N[C@H]2C[C@@H](c3nc(Cc4ccccc4)no3)N(C)C2)cc1	5.5%[70.6 µM]
COc1ccccc1C(=O)NC1CC(=O)N(Cc2cccc(F)c2)C1 (configuration not stated)	2.7%
CC(C)CN1CCN(C2CCOC3(CCN(C(=O)C4CCCC4)CC3)C2)CC1 (configuration not stated)	4.1%
Cc1cc(C(=O)N2CCCCCCNC(=O)[C@@H]3CCCC[C@@H]32)nn1C	-1.2%
CCc1cccc(NC(=O)c2ccc3c(c2)N(CC)C2CCCCN2C3=O)c1 (configuration not stated)	0.0%
COc1ccc(NC(=O)C2Cn3cccc3C(=O)N2C)cc1 (configuration not stated)	4.6%
Cc1nonc1OCCn1ccnc1-c1cn(C2CCNCC2)nn1	4.7%
C[C@H]1[C@@H]2[C@H]3OC(=O)[C@@H](C)[C@@H]3CC[C@@]2(C)CC[C@@H]1NC(=O)c1ccc(C#N)cc1	0.3%[70.6 µM]
O=C1CCC(C(=O)N2CCSCC2)CN1CCc1cccc(F)c1 (configuration not stated)	3.2%
CSCCNC(=O)C1CN(c2ccc(F)cc2)C(=O)N1 (configuration not stated)	3.5%[70.6 µM]
CCCN1CCC2(CCN(C(=O)Nc3ccccc3)CC2)Oc2ccccc21	0.0%
O=S(=O)(NCC1(COc2ccc(C(F)(F)F)cn2)C[C@@H](O)[C@@H](O)C1)c1ccc(F)cc1 (some centres not stated)	1.1%
COc1cccc(C(=O)NC2CCCN(c3nc4ncccc4o3)C2)c1 (configuration not stated)	19.9%
O=C(Nc1ccc([C@@H](O)[C@H]2COCC(=O)N2Cc2ccc(F)cc2)cc1)c1ccccc1	-7.0%[70.6 µM]
CC(C)c1nncn1C1CCN(S(=O)(=O)Cc2ccc(Cl)cc2)CC1	0.1%
O=C(C[C@@H]1C[C@H]2O[C@H](CNC(=O)N3CCOCC3)[C@@H](O)[C@H]2O1)N1CCOCC1	0.7%[70.6 µM]
